# CapD inh: CapD enzyme inhibition. z-score (concentration not given with the values). hit rate 0.23% among 140,000. purified CapD enzyme, fluorescence intensity read-out; stronger effect = lower value; some hits fall short of the stated cut. AID 492967;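 active = z-score under -4 in either of two replicates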;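 note: stock transfer was 100 nL into about 40 µL; score is relative to mean and spread of the plate; one replicate is shown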
# AID504770: E. coli YBA685 growth inhibition, screen for V. cholerae RctB inhibitors. E. coli YBA685 rctB-dependent plasmid, OD600 growth, 3 h; stronger effect = lower value. z-score (no concentration beside the values). hit rate 0.27% among 130,000. AID 504770;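 active = z-score under -2 on both plates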;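 note: wells of about 30 µL received 100 nL stock; score is relative to mean and SD of the test wells; the first replicate is given; strong numbers were not always called active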
# * hit, by the source's call; nt = no result given. An excerpt; the hit share may differ from the screen's.
# Screens in order – CapD inh	AID504770
O=C(Nc1nc(-c2cc(Cl)sc2Cl)cs1)c1ccc([N+](=O)[O-])s1
→ -0.36	nt
O=C(Nc1nc2ccccc2[nH]1)c1cc(F)c(F)cc1Cl
→ 0.64	-0.5
CCCOC(=S)NC1OCC(OC(C)=O)C(OC(C)=O)C1OC(C)=O (centres undefined)
→ 0.27	0.4
O=C(CN1C(=O)S/C(=C\c2ccc(F)cc2)C1=O)Nc1ncc(Cc2ccccc2Cl)s1
→ -0.83	nt
CCN(CC)c1ncnc2sc(C(=O)N3CCCc4ccccc43)c(C)c12
→ -0.27	nt
COc1ccc(S(=O)(=O)N2CCN(C(=O)Cc3ccsc3)CC2)cc1
→ nt	-0.45
O=C(NCCCN1CCOCC1)c1ccc(CS(=O)(=O)Cc2ccc(Cl)cc2)o1
→ 0.015	-0.4
O=C(/C=C/c1ccco1)NCc1ccco1
→ 6.8	-0.85
CSc1nc(C)nc(C2CC2)c1C#N
→ -0.23	nt
CC1=CCC2C(=O)N(c3cccc(C(=O)N(C)C4CCCCC4)c3)C(=O)C2C1 (centres undefined)
→ 0.03	0.45
O=S(=O)(c1ccc(Cl)cc1)N1CN(C2CCCC2)c2nc3ccccc3nc21
→ nt	-0.65
CC(C)Cc1csc2ncnc(NCCO)c12
→ nt	0.1
CCN1CCN(c2ccc(Cl)cc2NC(=O)C2CCCN2C(=O)c2cccs2)CC1 (centres undefined)
→ nt	-0.45
O=C(N/N=C/c1ccc(O)c(O)c1O)c1ccc(NS(=O)(=O)c2ccc(Br)cc2)cc1
→ nt	-1.1
CN(C)C(=O)c1cc(-c2ccc(Cl)cc2)n(-c2ccc(Cl)cc2Cl)n1
→ -0.15	nt
N#Cc1c(-c2ccccc2)nc(SCc2cccc(C(F)(F)F)c2)[nH]c1=O
→ 1.6	nt
CCCCN1COc2c(cc(Cl)c3cccnc23)C1
→ -0.17	-5.8*
CCCCOc1cccc(-c2nnc(NC(=O)OC)s2)c1
→ 12	2
Cc1nn(-c2ccccc2)c(C)c1C(=O)NCC1(N(C)C)CCCCC1
→ nt	0.4
CC1=CC(C)(C)N(C(=O)CSc2ncccn2)c2ccc(C)cc21
→ -0.34	-0.65
O=C1N=C(N2CCOCC2)SC1=C1CCCCC1
→ 0.035	-0.85
C[C@]12CCC(=O)C=C1CCC1C2[C@@H](O)C[C@@]2(C)C1CC[C@]2(O)C(=O)COC(=O)CCC(=O)O (some centres undefined)
→ 0.49	0.35
COc1ccc(-c2cc(C3CCN(c4nc(N)c5cc(OC)c(OC)cc5n4)CC3)[nH]n2)cc1OC
→ 72	-0.4
O=C(O)CCn1cc(C=C2C(=O)NC(=O)NC2=O)c(-c2cc3ccccc3oc2=O)n1
→ nt	-0.25
COc1ccc2oc(-c3ccccc3)c(C(=O)O)c2c1
→ 76	1.4
CN1CCCC1CCOC(=O)N1CCC2(CC1)C(=O)NCN2c1ccccc1 (centres undefined)
→ -0.48	nt
CN(C)Cc1ccc(CNC(=O)c2ccc[nH]2)cc1
→ nt	0
Cn1nc(CC(=O)Nc2ccc(N3CCN(C(=O)OC(C)(C)C)CC3)cc2)c2ccccc2c1=O
→ nt	-0.45
Cc1ccc(S(=O)(=O)NCc2ccc(/C=N/NC(=O)c3ccco3)o2)cc1
→ nt	-0.35
O=C(NCc1nc(-c2ccccc2)cs1)c1ccccc1
→ 0.41	-0.6
Cc1ccc(CNCc2cccn2-c2nc3ccccc3s2)cc1
→ 0.1	0.7
COC(=O)C1=C(CNCCc2ccccc2)NC(=O)NC1c1ccc(OC)c(OC)c1 (centres undefined)
→ nt	1.1
N#CC(C(=O)c1ccc(F)cc1)c1ccccn1 (centres undefined)
→ nt	1.7
O=C(NCc1ccco1)/C(=C\c1cccc([N+](=O)[O-])c1)NC(=O)c1ccccc1
→ -0.27	nt
Cc1cccc(C(=O)OCC(=O)Nc2ccc3[nH]c(=O)[nH]c3c2)c1C
→ nt	0.8
O=C1C[C@@H](c2ccc(O)cc2)Oc2cc(O)cc(O)c21
→ -0.15	nt
COc1cc(/C=C2\SC(NC(C)=O)=NC2=O)ccc1Oc1ccc(C(F)(F)F)cc1[N+](=O)[O-]
→ -0.085	nt
COc1cccc2c(=O)cc(C)[nH]c12
→ nt	-1.1
CC(C)C(NC(=O)CCC(=O)Nc1ccc(Br)cn1)C(=O)OCc1ccc([N+](=O)[O-])cc1 (centres undefined)
→ 0.38	nt
CCOC(=O)c1sc(NC(=NC)c2ccco2)cc1C
→ nt	-0.55

# Another view of part of the listing above.
Structure | CapD inh | AID504770
O=C1N=C(N2CCOCC2)SC1=C1CCCCC1 | 0.035 | -0.85
C[C@]12CCC(=O)C=C1CCC1C2[C@@H](O)C[C@@]2(C)C1CC[C@]2(O)C(=O)COC(=O)CCC(=O)O (some centres undefined) | 0.49 | 0.35

# Carrying on.
# Screens in order – CapD inh	AID504770
Cc1ccc(COCc2cc3cccc4c3n(c2=O)CCC4)cc1
→ 3.9	nt
Cc1cc2nnc(SCC(=O)Nc3ccccc3F)n2c2ccccc12
→ 0.87	nt
O=C(Nc1ccccc1F)NC1CCN(Cc2nnnn2Cc2ccc(F)cc2)CC1
→ nt	0.15
COc1cc(CCC(=O)NCc2ccc(S(N)(=O)=O)cc2)cc(OC)c1OC
→ nt	-0.95
Nc1nc(C23CC4CCC(CC(C4)C2)C3)cs1
→ 1.2	1.4
O=C1c2ccccc2C(=O)c2c1oc1c3c(ccc21)OCN(CCC1=CCCCC1)C3
→ nt	-0.55
CC(=O)CCc1c[nH]c2ccccc12
→ 2	nt
CC(C)(C)C(=O)Nc1sc2c(c1C#N)CCN(Cc1ccccc1)C2
→ -0.025	-1.1
Nc1nonc1C(=O)NCc1ccco1
→ 0.51	-0.85
O=C(Cn1c2ccccc2c2cn[nH]c(=O)c21)N1CCCCC1
→ -1	-0.35
O=C(Cc1cccc2ccccc12)N1CCN(Cc2ccccc2)CC1
→ 0.15	0.1
Cc1coc(C)c1C(=O)CC1(O)C(=O)Nc2cc(Cl)cc(Cl)c21 (centres undefined)
→ -0.065	-0.9
CC(=O)N1c2ccccc2C(=O)C1N(Cc1ccccc1)C(C)C (centres undefined)
→ 43	-0.8
CCCCN(C)C(=O)c1cn(C)c2ccc(S(=O)(=O)N(CC)CC)cc2c1=O
→ -0.51	0
Oc1c(Cl)cc(Cl)cc1C1Nc2cccc3cccc(c23)N1
→ 0.22	-0.5
CC1=CC(=O)OC1Cc1ccc2ccccc2n1 (centres undefined)
→ -0.5	0.25
CS(=O)(=O)NCc1c(Cl)cccc1Sc1ccc(Cl)cc1
→ 0.76	0.3
COC(=O)c1cc(-c2cccnc2)nn1-c1nc(C)cc(C)n1
→ nt	0.45
Cc1cc(C)n(-c2n[nH]c(=S)n2N)n1
→ 0.03	-0.45
O=C(Nc1ccccc1F)c1cc2c(Cl)ccc3c2n1CCO3
→ 27	-0.95
COc1ccc(C2=NC(c3sccc3C)NC(c3cc(Cl)ccc3O)C2)cc1 (centres undefined)
→ 63	1.4
Cc1nc(C)c(C(=O)N/N=C/c2cc(Br)ccc2O)s1
→ nt	-0.55
O=C1CNC(=S)N1Cc1ccncc1
→ -0.47	nt
C=CCn1c(SCC(=O)Nc2ccc3c(c2)OCO3)nnc1-c1ccccc1F
→ nt	-0.8
CC(C)C12CN3CC(C(C)C)(CN(C1)C3c1ccc([N+](=O)[O-])cc1)C2=O (centres undefined)
→ -0.04	nt
CN1C(=O)N(C)C2(c3ccccc3)Nn3c(s/c(=C/c4ccc([N+](=O)[O-])cc4)c3=O)=NC12c1ccccc1 (centres undefined)
→ -0.29	nt
Cn1c(C(=O)c2ccccc2)nc2ccccc21
→ -1	0.1
Cn1c(Cc2nnc(Nc3ccc(S(=O)(=O)N4CCOCC4)cc3)s2)nc2ccccc21
→ nt	-0.6
Cn1c(=O)n(C)c2cc(C(=O)O)ccc21
→ -0.025	-0.45
COc1cc(C(=O)Nc2cc(C)c3c(=O)oc4ccccc4c3n2)cc(OC)c1OC
→ nt	2.1
c1ccc(Nc2ncnc3c2sc2ncccc23)cc1
→ 1.6	0.4
ClC(=Nc1ccccc1)c1ccccc1
→ -0.09	-1.2
CC1(C)C(=O)Nc2ccccc2N1C(=O)CSc1nc2ccccc2[nH]1
→ nt	0
Nc1ccccc1C(=O)c1ccccc1
→ -1.4	-1.2
O=C(CN1C(=O)S/C(=C\c2ccc(Cl)cc2)C1=O)Nc1cc([N+](=O)[O-])ccc1O
→ -0.63	nt
CCOC(=O)c1ccccc1CSC(=N)N
→ 0	nt
CCCc1nc2nc(C)cc(NCCN3CCN(c4cccc(Cl)c4)CC3)n2n1
→ -0.98	1
CN1CCN(/N=C/C2=C(O)CC(c3ccccc3)CC2=O)CC1 (centres undefined)
→ 0.45	-0.05
COc1ccc(CN(C)C(=O)c2cccc(S(=O)(=O)N3CCOCC3)c2)cc1F
→ nt	-0.35
CCOC(=O)/C(C#N)=N\Nc1cc(C(N)=O)cc(C(N)=O)c1
→ -2.5	-0.65
CCOC(=O)c1nnn(-c2nonc2N)c1CSc1nc2ccc(OCC)cc2s1
→ -0.17	nt
Cc1ccc(S(=O)(=O)NC(=O)Nc2ccc(OC(F)(F)F)cc2Br)cc1
→ -0.73	nt
O=S(=O)(Cc1ccccc1)Nc1noc2ccccc12
→ -0.05	-0.75
COC(=O)c1ccc(OCc2ccc(Cl)nc2)cc1
→ 0.44	0.65
COc1ccc2[nH]c3c(c2c1)CCNC3CC(=O)O (centres undefined)
→ 0.24	-0.45
COc1ccc(CCN=C2SCC(=O)N2Cc2ccccc2)cc1OC
→ 66	-0.45
CN(C)c1nc(N)c2c(ncn2C)n1
→ 52	nt
O=C(c1c[nH]c(C(=O)C(Cl)(Cl)Cl)c1)c1c(Cl)cccc1Cl
→ -0.41	nt
Cc1onc(-c2ccccc2)c1CNC(=O)C1CCC1
→ 0.69	-0.3
CN(C)CC(O)COc1cccc2ccccc12 (centres undefined)
→ 0.02	-0.65
CC(NC(=O)COc1ccc(Oc2ccccc2)cc1)C(=O)O (centres undefined)
→ nt	0.05
Cc1cc(C)c2c(n1)sc1c(N3CCN(CCO)CC3)ncnc12
→ nt	1
Cc1ccc(CCOC(=O)NC(Cc2ccccc2)C(=O)NNC(=O)OCc2ccccc2)cc1 (centres undefined)
→ -0.9	nt
CC1CCCC(C)N1C(=O)COC(=O)C1CC1 (centres undefined)
→ -0.1	-1.2
CC(C)c1ccccc1N=C=S
→ nt	-0.35
COc1cc2c(cc1OC)C1=NC(=O)CN1C(SCc1ccccc1)=N2
→ 11	nt
COc1ccc(CCn2c(-c3ccc(Br)cc3)csc2=Nc2ccc(F)cc2)cc1OC
→ 35	nt
Fc1cccc(Cl)c1CN1CCN(Cc2c(F)cccc2Cl)CC1
→ -0.22	-0.4
CC1CCN(Cc2c(O)ccc3c2O/C(=C\c2ccccc2)C3=O)CC1
→ nt	-0.05
CCOC(=O)c1c(C)n(CCOc2ccc(-c3ccccc3)cc2)c2ccc(O)cc12
→ -0.63	nt

# Following part
# Screens in order – CapD inh	AID504770
COc1cc(C2C3=C(CC(C)(C)CC3=O)OC3=C2C(=O)CC(C)(C)C3)cc(OC)c1OC(C)=O
→ 0.43	nt
COc1cccc(/C=N/NC(=O)c2ccccn2)c1
→ -0.59	-0.45
CC(=O)C12c3ccccc3C(c3ccccc31)C1C(=O)N(c3ccccc3)C(=O)C12 (centres undefined)
→ -0.24	nt
CC(C)N(CCCn1cccc1)C(=S)Nc1cccc(C(F)(F)F)c1
→ 0.76	-0.85
Cc1cc(C(=O)N2CCN(Cc3ccc4c(c3)OCO4)CC2)cs1
→ -0.77	1.7
O=c1c2ccccc2nc(-c2ccccc2)n1-c1cccc(O)c1
→ 0.18	-0.85
CCNS(=O)(=O)c1ccc2c(c1)C(=O)c1cc(S(=O)(=O)NCC)ccc1-2
→ -1.1	1
CCOC(=O)CC1Sc2ccccc2N=C1SCCS(=O)(=O)c1ccc(Cl)cc1 (centres undefined)
→ 0.22	0.75
CSc1nc2c(=O)[nH]c(N)nc2n1[C@@H]1O[C@H](CO)[C@H](O)C1O (some centres undefined)
→ -0.3	nt
CCOc1cc(C2Nc3ccccc3NC3=C2C(=O)CC(c2ccccc2)C3)cc(Br)c1O (centres undefined)
→ -1.4	nt
CN(C)c1cc(C(F)(F)F)nc(-c2ccccn2)n1
→ 1.7	-0.35
CN1CCCN(C(=O)c2ccc3[nH]c4c(c3c2)CCCC4)CC1
→ nt	-0.35
COc1cccc(OC)c1C(=O)NN1CCCCC1
→ -0.14	-0.6
CN1C(=O)OC(C)(C)C1=O
→ -0.17	nt
NC(=O)N/N=C1\CCS(=O)(=O)c2ccc(F)cc21
→ nt	-0.45
CCSc1n[nH]c2nc3ccccc3n12
→ -0.39	-0.3
CCOC(=O)C1=C(NC(=O)Cc2ccccc2)c2ccccc2CC12CCCC2
→ -0.38	nt
C=CCN1C(=O)c2ccccc2Sc2ccc(C(=O)N3CCCC3)cc21
→ -0.41	1.1
CC1CN(CC(O)COc2ccc(C3CCCCC3)cc2)CC(C)O1 (centres undefined)
→ -0.15	-0.1
O=C(O)CCC(=O)N1CCc2cc(S(=O)(=O)N(CCc3ccccc3)Cc3ccccc3)ccc21
→ -1.3	0.2
Cc1nn(Cc2c(Cl)cccc2Cl)c(Cl)c1CN1CCN(CC(=O)N2CCCC2)CC1
→ nt	1.7
CC(=O)[C@@H]1[C@H]2C3COC(O3)C(=O)[C@@H]2[C@H]2C=Cc3ccccc3N21 (some centres undefined)
→ 6	nt

# Seven compounds drawn at random from the list so far, as already listed:
# Screens in order – CapD inh	AID504770
O=c1c2ccccc2nc(-c2ccccc2)n1-c1cccc(O)c1
→ 0.18	-0.85
Cc1nn(Cc2c(Cl)cccc2Cl)c(Cl)c1CN1CCN(CC(=O)N2CCCC2)CC1
→ nt	1.7
CSc1nc2c(=O)[nH]c(N)nc2n1[C@@H]1O[C@H](CO)[C@H](O)C1O (some centres undefined)
→ -0.3	nt
CCOC(=O)C1=C(NC(=O)Cc2ccccc2)c2ccccc2CC12CCCC2
→ -0.38	nt
Cc1cc(C(=O)N2CCN(Cc3ccc4c(c3)OCO4)CC2)cs1
→ -0.77	1.7
CCSc1n[nH]c2nc3ccccc3n12
→ -0.39	-0.3
CN1CCCN(C(=O)c2ccc3[nH]c4c(c3c2)CCCC4)CC1
→ nt	-0.35

# From PubChem
